MbtI inh = MbtI salicylate synthase inhibitors, primary screen, biochemical, fluorescence intensity; purified MbtI enzyme, fluorescence intensity read-out; inhibition, %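 (about 17 µg/mL by stock and volumes)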; actives 0.89% (n = 100,000); AID 493033, 2011;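 active = above 50% in both replicates, above 80% if mildly self-fluorescent; inactive = the rest, strongly fluorescent compounds included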;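 also: 0% = mean of negative and 100% = mean of positive controls; one replicate is shown; some compounds called inactive have numbers as strong as hits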
Target sequence (P9WFX0 whole entry, looked up): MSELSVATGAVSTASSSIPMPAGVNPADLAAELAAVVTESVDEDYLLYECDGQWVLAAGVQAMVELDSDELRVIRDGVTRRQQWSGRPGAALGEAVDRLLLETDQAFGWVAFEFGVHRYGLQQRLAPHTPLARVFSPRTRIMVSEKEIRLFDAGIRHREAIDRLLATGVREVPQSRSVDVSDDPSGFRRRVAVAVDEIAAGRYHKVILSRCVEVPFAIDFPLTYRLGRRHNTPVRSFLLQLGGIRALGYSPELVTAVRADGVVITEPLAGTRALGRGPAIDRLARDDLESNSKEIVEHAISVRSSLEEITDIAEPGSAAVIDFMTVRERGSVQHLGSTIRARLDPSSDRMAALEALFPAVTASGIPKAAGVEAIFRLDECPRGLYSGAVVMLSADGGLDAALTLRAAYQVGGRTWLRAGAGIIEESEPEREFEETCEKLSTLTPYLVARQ
MenB inh = M. tuberculosis MenB inhibitors, primary screen, biochemical, absorbance; actives 0.43% (n = 100,000); MenB enzyme assay, absorbance read-out; some hits fall short of the stated cut; AID 540299, 2011; inhibition, %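 (about 12 µg/mL by stock and volumes)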; 1,4-dihydroxy-2-naphthoyl-CoA synthase (Mycobacterium tuberculosis (strain ATCC 25618 / …;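 active = mean of two replicates above 30%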;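 also: 0% = no compound and 100% = wells with inactive enzyme; the first replicate is given; strong numbers were not always called active; inactives centre near -10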
PV pol inh = poliovirus RdRp elongation inhibitors, primary screen, biochemical, fluorescence polarization, total intensity | Genome polyprotein (Poliovirus type 1 (strain Mahoney)), P03300 | poliovirus polymerase elongation; active compounds read low | % elongation, % (compound at 16.7 µg/mL) | actives 0.66% (n = 150,000) | AID 588519, 2011; in the data active = % elongation below about 90%; also: some results filed as inactive read as strong as hits
Target sequence (P03300 1749-2209 limits assumed): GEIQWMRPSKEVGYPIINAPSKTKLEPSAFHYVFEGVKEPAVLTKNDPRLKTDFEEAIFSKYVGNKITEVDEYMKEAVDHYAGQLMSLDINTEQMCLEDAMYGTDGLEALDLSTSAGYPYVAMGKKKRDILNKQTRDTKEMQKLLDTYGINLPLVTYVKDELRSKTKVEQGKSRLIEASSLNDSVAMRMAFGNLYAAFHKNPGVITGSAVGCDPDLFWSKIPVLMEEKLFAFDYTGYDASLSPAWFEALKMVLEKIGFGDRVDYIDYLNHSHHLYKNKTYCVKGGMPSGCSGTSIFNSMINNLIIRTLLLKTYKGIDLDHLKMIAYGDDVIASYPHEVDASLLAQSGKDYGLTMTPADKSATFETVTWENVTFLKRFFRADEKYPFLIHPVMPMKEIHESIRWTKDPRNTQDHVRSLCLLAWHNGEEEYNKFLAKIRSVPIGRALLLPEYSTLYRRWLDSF
PV pol inh intensity = further read-out of PV pol inh, marked with its call; % elongation; measured here: total intensity read-out; formula for this scale not given here;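 total fluorescence in place of polarization; lower means less elongation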
Numbers without * were called inactive; i = inactive; · = not tested or not shown; & = joins results of further samples; ! = repeats disagree.

SMILES	MbtI inh	MenB inh	PV pol inh	PV pol inh intensity
Cc1ccc2nc(NC(=O)C(Cc3ccccc3)n3cccc3)sc2c1 (configuration not stated)	-4.2	-20.1	103.0	102.0
O=C(CCn1[nH]c(=O)ccc1=O)Nc1nc2ccccc2[nH]1	-4.3	-16.0	102.0	109.0
COc1ccc2c(C)cc(N(C)C3CCN(C)CC3)nc2c1	-22.4	-19.4	101.0	108.0
COc1ccc2[nH]c(C(=O)N3CCC(Cc4ccccc4)CC3)cc2c1	-8.9	-3.8	106.0	115.0
Cc1cc(N2CCC3(CC2)OCCO3)n2ncnc2n1	9.2	-20.5	100.0	104.0
COc1ccc(OC)c(N=C2SCCN2C(=O)CC2CCCC2)c1	9.8	-17.7	107.0	107.0
CC(C)NC(=O)NCc1ccc(C(=O)OCc2nnc(-c3ccccc3)o2)cc1	-5.8	-9.3	103.0	107.0
CC1CC(C)CN(S(=O)(=O)c2ccc(Cl)cc2)C1 (configuration not stated)	·	-17.8	103.0	106.0
O=C(c1cc(C2CC2)on1)N1CCN(c2ccccc2)CC1	-6.9	-12.3	103.0	104.0
O=C(Cn1cnc2ccccc21)N/N=C/c1sc(N2CCCCC2)nc1-c1cccs1	6.2	-43.6	118.0	119.0
Cc1sc2c(c1C)CN(C1CCCC1)CN2C(=O)c1ccccc1	6.2	-0.8	97.0	100.0
C=CCn1c(Cc2nnc(SCC(=O)c3ccccc3)n2CC=C)nnc1SCC(=O)c1ccccc1	8.8	-11.3	102.0	103.0
CCN(CC)c1ccc2c(N3CCCCC3)cc(=O)oc2c1	·	-38.7	118.0	122.0
O=C1CC(c2ccccc2)n2nc(NC(=O)c3ccco3)nc2N1 (configuration not stated)	-61.6	-15.0	104.0	107.0
CC(C)c1ccc(NC(=S)N=C(N)N)cc1	6.8	-16.3	99.0	100.0
COc1cc(C(=S)N(C)C)ccc1O	49.8	-2.2	100.0	101.0
CC1CCCCN1C(=O)Nc1noc2c1COc1ccccc1-2 (configuration not stated)	-8.2	0.1	101.0	102.0
O=C(c1ccc2c(c1)OCO2)N1CCc2ccccc2C1	1.9	11.7	101.0	102.0
O=C(Cn1nc(Cc2cccnc2)c2ccccc2c1=O)NCCCN1CCCC1=O	1.6	12.3	101.0	101.0
Cc1cc2nc(SCC(=O)C(C)(C)C)[nH]c2cc1C	28.8	·	103.0	98.0
Cc1ccc(/C=C/C(=O)OCc2cc(=O)n3cc(Br)ccc3n2)o1	-2.7	-1.6	99.0	106.0
O=C(Cn1cc2c(n1)CCCC2)NC1CCCC1	-7.9	-14.9	102.0	108.0
Cn1c(-c2ccccc2)c(C(=O)CSc2nnc3n2CCCCC3)c2ccccc21	15.4	-28.9	101.0	107.0
CCc1ccc(OCC(=O)C(C#N)c2nc3ccccc3[nH]2)cc1 (configuration not stated)	-1.8	·	102.0	103.0

Record cards, as listed above. Screens in order: MbtI inh | MenB inh | PV pol inh | PV pol inh intensity
O=C(CCn1[nH]c(=O)ccc1=O)Nc1nc2ccccc2[nH]1 is entered as -4.3 | -16.0 | 102.0 | 109.0
CCN(CC)c1ccc2c(N3CCCCC3)cc(=O)oc2c1 is entered as · | -38.7 | 118.0 | 122.0
C=CCn1c(Cc2nnc(SCC(=O)c3ccccc3)n2CC=C)nnc1SCC(=O)c1ccccc1 is entered as 8.8 | -11.3 | 102.0 | 103.0
CC(C)NC(=O)NCc1ccc(C(=O)OCc2nnc(-c3ccccc3)o2)cc1 is entered as -5.8 | -9.3 | 103.0 | 107.0
O=C(Cn1cnc2ccccc21)N/N=C/c1sc(N2CCCCC2)nc1-c1cccs1 is entered as 6.2 | -43.6 | 118.0 | 119.0

(cont.)
SMILES	MbtI inh	MenB inh	PV pol inh	PV pol inh intensity
Oc1ccccc1/C=N/c1ncn[nH]1	-7.4	-22.4	95.0&105.0	124.0&103.0
NC(=O)CS(=O)(=O)C(c1ccccc1)c1ccccc1	5.8	-19.2	102.0	103.0
O=C(CCn1[nH]c(=O)c2ccccc2c1=O)OC1CCCCC1	-16.6	-28.8	103.0	100.0
COc1ccc(CCNc2ccccc2C(=O)O)cc1OC	125.2	5.2	107.0	109.0
Cn1c(=O)c2[nH]c(N3CCCC3)nc2n(C)c1=O	3.3	-9.5	·	·
COc1ccccc1OCC(=O)Nc1cccc(Cl)c1Cl	-8.7	·	100.0	107.0
COc1cccc2c1OC1(C)CC2N(C(=O)c2ccc(Br)o2)C(=S)N1c1ccc(C)cc1 (configuration not stated)	-9.0	-25.5	105.0	119.0
CN1CCN(/N=c2\cc(-c3ccccc3)oc3ccccc23)CC1	10.2	-28.7	100.0	97.0
Cc1nn(-c2cc(N3CCCCC3)ccc2N)c(=O)c2ccccc12	19.9	3.0	101.0	101.0
O=C(O)CN1c2cccc3cccc(c23)S1(=O)=O	54.0	8.8	93.0	99.0
S=c1nc(-c2ccco2)[nH][nH]1	88.9	-13.0	106.0	109.0
O=C(O)/C=C/C(=O)Nc1ccc(N2CCOCC2)nc1N1CCOCC1	2.3	-8.4	94.0	118.0
CCc1cccc(Nc2c3c(nc4ncnn24)CCC3)c1	6.3	-1.2	102.0	99.0
CCC(=O)NCc1nc2ccccc2n1C(C)c1ccccc1 (configuration not stated)	2.8	-29.1	103.0	101.0
COc1ccc(NC(=O)C2CCN(c3nn4cc(-c5ccc(OC)cc5)nc4s3)CC2)cc1	-5.0	-8.4	103.0	102.0
O=C(Nc1nnc(C2CCCCC2)s1)c1ccc2c(c1)OCO2	14.8	-23.4	101.0	102.0
CC(C)CC(NC(=O)CC12CC3CC(CC(C3)C1)C2)C(=O)N1CCOCC1 (configuration not stated)	11.6	-16.6	·	·
Cc1oc(-c2ccccc2F)nc1CS(=O)(=O)CC(=O)N1CCCCCC1	9.7	8.3	102.0	96.0
CC(NCCc1ccc(O)cc1)C(O)c1ccc(O)cc1 (configuration not stated)	-7.1	-7.3	101.0	99.0
CC(C)c1ccc(C2C3=C(CC(c4cccs4)CC3=O)Nc3ncnn32)cc1 (configuration not stated)	-6.8	-47.5	103.0	101.0
COc1ccc(-c2nnsc2N2C(=O)c3ccccc3C2=O)cc1	24.9	24.1	101.0	97.0
CN(Cc1ccccc1)C(=O)COc1cccc2ccccc12	6.5	·	105.0	99.0
CC1=C(C(=O)Nc2ccccc2)C(c2ccc(C)cc2)N=C(Nc2nc3ccccc3o2)N1 (configuration not stated)	-42.5	-31.2	101.0	100.0
Cc1[nH]c2ccccc2c1C(O)c1cccnc1 (configuration not stated)	3.2	-9.5	104.0	107.0
O=C1CCC(=O)N1CNc1cccc(Cl)c1	-10.3	-5.3	102.0	98.0
Cc1nnc(SCc2ccc(F)cc2Cl)c2cc3occc3n12	-1.4	-17.6	102.0	101.0
COC(=O)CSc1nccc(=O)[nH]1	-7.0	-1.1	101.0	100.0
Cn1c(COc2ccccc2)n[nH]c1=S	64.8*!	-42.4&-9.0	102.0&101.0	106.0&102.0
O=C(CSc1nnnn1C1CCCC1)c1ccc(NC(=O)c2ccccc2)cc1	8.9	-4.3	105.0	101.0
CC(C)N(C)NC(=S)Nc1ccccc1	-18.7	40.6*	100.0	103.0
COc1ccc(N2CCN(C(=O)c3ccc(NC(=O)C4=C(C)OCCS4)cc3)CC2)cc1	5.4	-19.6	102.0	100.0
Cc1ccc2c(c1)-c1onc(C(=O)N(C)c3ccccc3)c1CO2	-23.9	-15.7	103.0	103.0
Cc1cc(C(=O)O)c(C)n1C(C)C	3.2	-51.8	101.0	106.0
O=C(Nc1ccccc1)Nc1sccc1-c1nc2ccccc2s1	4.2	-13.0	127.0	134.0
NC(=O)c1c(NC(=O)COC(=O)C2CC(=O)N(Cc3ccco3)C2)sc2c1CCC2 (configuration not stated)	26.4	-46.3	111.0	125.0
C#CCSc1nnnn1-c1cccc(Cl)c1	1.9	-15.4	104.0	104.0

Sorted by formula weight (smallest number first): some entries from above.
SMILES	MbtI inh	MenB inh	PV pol inh	PV pol inh intensity
Cn1c(COc2ccccc2)n[nH]c1=S	64.8*!	-42.4&-9.0	102.0&101.0	106.0&102.0
CC(C)N(C)NC(=S)Nc1ccccc1	-18.7	40.6*	100.0	103.0
O=C1CCC(=O)N1CNc1cccc(Cl)c1	-10.3	-5.3	102.0	98.0
Cc1nnc(SCc2ccc(F)cc2Cl)c2cc3occc3n12	-1.4	-17.6	102.0	101.0
O=C(Nc1ccccc1)Nc1sccc1-c1nc2ccccc2s1	4.2	-13.0	127.0	134.0
O=C(CSc1nnnn1C1CCCC1)c1ccc(NC(=O)c2ccccc2)cc1	8.9	-4.3	105.0	101.0
NC(=O)c1c(NC(=O)COC(=O)C2CC(=O)N(Cc3ccco3)C2)sc2c1CCC2 (configuration not stated)	26.4	-46.3	111.0	125.0

Remaining list, next part:
SMILES	MbtI inh	MenB inh	PV pol inh	PV pol inh intensity
COc1cc(NC(=O)C(C)C)ccc1NC(=O)C(C)C	-13.9	-5.8	102.0	104.0
CC1CN(Cc2cc(Cl)c3cccnc3c2O)CC(C)O1 (configuration not stated)	18.9	-8.4	141.0	188.0
CC(C)(C)c1ccc(C(=O)N2CCC(C(=O)NC3CC3)CC2)cc1	20.0	-32.8	103.0	102.0
O=C1CCCC2=C1C(c1ccc(Cl)cc1)c1c(ccc3ccccc13)N2 (configuration not stated)	i	-60.3	103.0	104.0
Cc1cc(Cl)ccc1NC(=O)COC(=O)c1cccs1	·	-3.6	106.0	111.0
O=C1C(=O)N(CCCN2CCOCC2)C(c2ccccc2F)/C1=C(\O)c1ccc2c(c1)OCCO2 (configuration not stated)	-11.0	-33.7	103.0	102.0
CCN=C1S/C(=C\c2cn(C(C)=O)nc2-c2ccccc2)C(=O)N1CC	·	-9.7	104.0	102.0
CC(=O)OCC(=O)[C@@]12OC3(CCCC3)O[C@@H]1CC1C3CCC4=CC(=O)C=C[C@]4(C)[C@@]3(F)[C@@H](O)C[C@@]12C (some centres not stated)	-12.2	-15.2	98.0	102.0
COc1cccc(OC)c1OC(=O)c1c(F)cccc1F	-4.5	-14.1	103.0	103.0
COc1cccc(OCC(=O)Nc2cccc(C(=O)O)c2C)c1	-9.8	-15.8	99.0	102.0
CCOC(=O)C1CCN(c2ccccc2CN2CCN(c3ncc(C(F)(F)F)cc3Cl)CC2)CC1	0.8	-10.5	105.0	108.0
COc1ccc(-c2cn3cccnc3n2)cc1NC(=O)C(C)C	2.9	-2.1	104.0	108.0
Oc1ccc(C2Oc3ccccc3C3CC(c4ccccc4O)=NN32)cc1 (configuration not stated)	15.2	-14.0	103.0	104.0
Cc1cc2c(cc1C)NC(c1ccc(N(C)C)cc1)C1=C(CC(C)(C)CC1=O)N2 (configuration not stated)	-4.0	-15.9	101.0	101.0
N#CCCC1CCCCCCCCCCC1O (configuration not stated)	-4.8	-5.4	100.0	105.0
COC(=O)C(=Nc1ccc(NC(C)=O)cc1)C(F)(F)F	-7.7	8.7	100.0	102.0
COc1ccc2c(c1)-c1c(ssc1=Nc1ccc(S(N)(=O)=O)cc1)C(C)(C)N2	0.7	-39.3	103.0	104.0
O=C(Nc1ccc(Br)cc1)C1(c2ccccc2)CCCC1	·	-17.3	102.0	105.0
O=c1occ(CO)c(O)c1CN1CCCCC1	·	6.7	100.0	107.0
O=C(CSCc1cnn(-c2ccccc2)c1-n1cccc1)Nc1ccccc1Br	10.7	-32.2	104.0	105.0
CCOc1nc2cnccc2n(C(CC)C(=O)NC2CCCCC2)c1=O (configuration not stated)	-29.4	-10.5	102.0	103.0
CC(CNC1CCN(C)CC1)c1ccccc1 (configuration not stated)	-9.2	-27.0	103.0	100.0
CC(Oc1cccc(Cl)c1)C(=O)N1CCCC1 (configuration not stated)	·	-9.9	106.0	111.0
Cc1ccc(N=Cc2ccc3ccccc3n2)cc1	-7.6	·	105.0	108.0
S=C(Nc1ccc(Oc2ccccc2)cc1)NN1CCOCC1	-8.1	-3.1	103.0	99.0
COCC(=O)Nc1ccc(C(C)C)cc1	-4.5	-66.3	99.0	95.0
Cc1nc2ccccc2nc1CSc1nnc(C2COc3ccccc3O2)n1C (configuration not stated)	4.1	-7.7	102.0	104.0
Cc1cccc(NC(=O)c2cccc(Cn3nc(C)c(Cl)c3C)c2)c1C	·	3.3	102.0	97.0
COC(=O)C(C)Sc1nnc(Cc2cc(=O)[nH]c(=O)[nH]2)n1-c1cccc(C)c1 (configuration not stated)	-1.5	-49.9	102.0	106.0

Source: PubChem (ICCB-Longwood Screening Facility, Harvard Medical School)
